Six1-Eya2 inh = qHTS Assay for Inhibitors of the Six1/Eya2 Interaction. AlphaScreen GST-Six1/His-Eya2 binding, biochemical; active compounds read low; control for the full effect not named in the record. activity change, % (test concentration not listed). Homeobox protein SIX1 (Homo sapiens) + Protein phosphatase EYA2 (Homo sapiens), …. 360,000 compounds, 0.56% hits; in the data active = activity change below about -65%; inconclusive = about -30% to -65%; inactive = above about -30%; note: % is set by controls: 0 for no effect and ±100 for the full control effect
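AlphaScreen luminescence read after one hour at 37 °C in darkness. Pin-transferred compounds met GST-Six1 and His-Eya2 protein (5X stock 250 nM/500 nM) plus glutathione donor and Ni-chelate acceptor beads (5X, 50 ug/mL).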
D2 PAM = Beta-Arrestin HTS for Positive Allosteric Modulators of the Human D2 Dopamine Receptor: Potentiators | D(2) dopamine receptor (Homo sapiens), P14416 | potentiation, % (no concentration beside the values) | AID 624464, 2012 | 360,000 compounds, 0.23% hits | DiscoveRx D2 beta-arrestin cells, luminescence, 90 min; 100% = 57 uM dopamine signal; active = potentiation of 50% or more; inconclusive = 30% to 50%; inactive = 30% or less;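 note: compound concentration not given in the record; tested on top of an EC20 dose of dopamine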
Target sequence (P14416 whole entry, looked up): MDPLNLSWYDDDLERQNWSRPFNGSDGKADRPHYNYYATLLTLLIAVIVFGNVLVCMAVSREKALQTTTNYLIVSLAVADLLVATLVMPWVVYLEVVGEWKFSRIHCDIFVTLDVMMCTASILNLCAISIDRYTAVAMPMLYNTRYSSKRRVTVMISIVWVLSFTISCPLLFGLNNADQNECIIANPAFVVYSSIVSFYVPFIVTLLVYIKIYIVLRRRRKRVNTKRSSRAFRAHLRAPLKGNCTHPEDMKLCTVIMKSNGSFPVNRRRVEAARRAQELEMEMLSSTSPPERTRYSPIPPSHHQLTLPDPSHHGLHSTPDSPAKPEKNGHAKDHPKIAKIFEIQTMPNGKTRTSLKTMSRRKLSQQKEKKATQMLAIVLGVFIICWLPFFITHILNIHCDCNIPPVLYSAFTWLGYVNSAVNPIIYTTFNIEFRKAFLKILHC
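PathHunter D2 cells, attached overnight at 37 deg C, received compound in DMSO plus dopamine at EC20 (50 nM final) for 90 min at 37 deg C. Beta-arrestin recruitment was read as luminescence after 1 h with detection reagent at ambient temperature.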
TRPV1 PAM = HTS Assay for Compounds that Act as Potentiators of the Vanilloid Receptor 1; 320,000 compounds, 0.02% hits; potentiation, % at 8.33 µM; Transient receptor potential cation channel subfamily V member 1 (Homo sapiens), Q8NER1; TRPV1-expressing cells, Fluo-8 calcium influx, capsaicin EC20 potentiation; host cell line not named in the record; control for the full effect not named in the record; AID 540277, 2011; active means potentiation above 80%; inconclusive means 30% to 80%; inactive means below 30%; note: 0% is about no effect
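Fluo-8 calcium influx in TRPV1-expressing cells, kinetic read (ex 480/em 520 nm). Compound added and read 3 min for agonist activity, followed by capsaicin at EC20 final and 2 min further read for enhancement.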
PINK1 modulator = A Quantitative High throughput Screen to Identify Chemical Modulators of PINK1 Expression; PINK1 immunofluorescence, high-content cytometry, 24 h; Potency, µM (series often up to 76.6 µM), for the others: top-dose activation (PINK1 increase), most hits filed as activators; 410,000 compounds, 0.2% hits; AID 624263, 2012; active = well fitted activation curve with a large enough effect; inconclusive = small, poorly fitted or top-dose-only effect; inactive = flat fitted curve, though single readings scatter; cell line not stated here;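 note: potency is the fitted concentration of half-maximal effect; % of control where 0% means no effect; nearly all actives have a fitted effect of over 65% in size; a mitochondrial uncoupler was the plate control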
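Stable cell line treated 24 h with compounds at 5 concentrations (CCCP controls), then fixed and immunostained for PINK1 plus nuclear and cell stains; PINK1 immunofluorescence quantified by laser-scanning microplate cytometry.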
D2 ag = Beta-Arrestin HTS for Positive Allosteric Modulators of the Human D2 Dopamine Receptor: Agonists. D(2) dopamine receptor (Homo sapiens), P14416. DiscoveRx PathHunter D2 beta-arrestin, luminescence, 90 min; 100% = 57 uM dopamine signal. activation, % (test concentration not listed). 360,000 compounds, 0.084% hits. AID 624465, 2012; in the data active = activation above about 40%; inconclusive = about 15% to 40%; inactive = below about 15%; note: compound concentration not given in the record; the text of the record calls up to 30% inactive
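Agonist mode: compounds alone added to overnight-plated D2 PathHunter cells for 90 min at 37 C, with 57 uM final dopamine (EC100) defining full response. Beta-arrestin recruitment detected by chemiluminescent reagent, read after 1 h at ambient temperature.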
CtBP-E1A inh = qHTS Assay for Inhibitors of the CtBP/E1A Interaction | activity change, % (test concentration not listed) | CtBP / adenovirus E1A interaction (AlphaScreen) | 340,000 compounds, 0.49% hits | AlphaScreen GST-E1A/His-CtBP binding, 1536-well; active compounds read low; control for the full effect not named in the record | AID 651724, 2012; in the data active means activity change below about -65%; inconclusive means about -30% to -65%; inactive means above about -30%; note: % is set by controls: 0 for no effect and ±100 for the full control effect
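Homogeneous bead-based format: GST-tagged E1A captured on glutathione donor beads, His-tagged CtBP on nickel acceptor beads; compounds precede bead addition by 2 h at 37 °C.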
Sfp inh = qHTS Assay for Inhibitors of Bacillus subtilis Sfp phosphopantetheinyl transferase (PPTase) | 4'-phosphopantetheinyl transferase ffp (Bacillus subtilis), Q9F4F7 | Biochemical Sfp PPTase activity, qHTS | Potency, µM, without a hit: max response, negative = inhibition, actives largely listed as inhibitors | 310,000 compounds, 3.5% hits; active = well fitted inhibition curve with a large enough effect; inconclusive = small, poorly fitted or top-dose-only effect, or another doubt; inactive = no such curve, though single readings can be large or run the other way;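 note: the enzyme is Sfp with the accession as filed and its product quenches rhodamine fluorescence; potency is the fitted concentration of half-maximal effect; 0% = enzyme reaction without inhibitor and -100% = no enzyme wells; top concentration of the series not given in the record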
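Reaction rates are the 30-min fluorescence difference (ex 525, em 598 nm) in wells containing 15 nM Sfp, 5 uM rhodamine-CoA and 12.5 uM BHQ-2-YbbR at pH 7.6 with 10 mM MgCl2.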
Starred values were filed as active, the others as inactive; ? = inconclusive; nt = no result given; [ ] = dose if it differs, or a comment.

No. | Structure | Six1-Eya2 inh | D2 PAM | TRPV1 PAM | PINK1 modulator | D2 ag | CtBP-E1A inh | Sfp inh
1 | CC(=O)Nc1ccc(C(=O)OCc2ccccc2Cl)cc1 | 0 | -3 | -7 | 1.3% | -4.3 | nt | -4%
2 | Cc1oc(-c2ccc(F)cc2F)nc1CN1CCN(C(=O)c2ccco2)CC1 | -10 | -11 | nt | 2.8% | -0.3 | -8 | nt
3 | COc1ccc(C(C)NC(=O)c2ccc(Cl)cc2)cc1OC (stereo unspecified) | 1 | -8 | -9 | 3.3% | 1.1 | 0 | 22%
4 | CC(C(=O)NCC(=O)Nc1ccc(F)c(F)c1F)N1CCN(Cc2ccc(C#N)cc2)CC1 (stereo unspecified) | 3 | -5 | 0 | 0.4% | -0.3 | 1 | nt
5 | COc1ccc(C(=O)NCc2ccc(F)cc2)cc1S(=O)(=O)N1CCCC1 | 0 | -24 | 5 | 5.4% | -3.6 | -5 | nt
6 | CCN(CC)C(=O)C(=O)c1cccn1-c1ccccc1C#N | 0 | 3 | -7 | 1.0% | -0.3 | 5 | 11%
7 | CCOC(=O)c1ccc(NC(=O)CCc2nc(-c3cccc(C)c3)no2)cc1 | 7 | 17 | -7 | 7.0% | 1.8 | 8 | 14%
8 | COCC(C)n1c(COc2ccccc2F)nnc1SCC(=O)c1c(N)n(C)c(=O)n(C)c1=O (stereo unspecified) | -24 | -7 | 11 | 2.8% | -3.9 | -8 | 6%
9 | Cc1cccc(C(C)(C)C)c1OCCn1ccnc1 | -4 | -12 | 16 | -3.1% | -1.4 | -2 | 2%
10 | C=CCn1c(=NC(=O)c2ccco2)sc2cc(C(=O)OCC)ccc21 | -3 | -25 | 0 | 5.7% | -1.3 | -10 | 8%
11 | CN(C)CCn1c2c(c(SCC(=O)NCc3ccccc3)nc1=O)CCCC2 | -4 | -4 | -3 | 0.1% | -0.4 | -3 | nt
12 | Cc1ccc(-n2c(-c3ccncc3)n[nH]c2=S)cc1 | 7 | -8 | -22 | 0.8% | -0.1 | 6 | -6%
13 | CNC(=O)C[C@@H]1C(=O)N(c2ccc(OC)cc2)CC1(C)C | -1 | 4 | nt | -0.4% | -1.2 | 4 | nt
14 | COc1ccc(-c2nn[nH]n2)cc1OC | 7 | 5 | 0 | 2.4% | -1.5 | 5 | 12%
15 | O=C1C2C(c3ccccc3)C=CC(c3ccccc3)C2C(=O)N1c1cccnc1 (stereo unspecified) | 6 | -6 | -10 | 0.7% | 1.7 | 9 | 3%
16 | Cc1cc(NC(=O)CCC(=O)N(CC(=O)NC2CCCC2)c2cccc(F)c2)no1 | -2 | -3 | 25 | -0.9% | -4.1 | 13 | 12%
17 | COCCN(C(=O)CSCc1ccccc1)c1c(N)n(Cc2ccccc2)c(=O)[nH]c1=O | 2 | -12 | -1 | -1.5% | -1.8 | 9 | 9%
18 | Cc1ncc([N+](=O)[O-])n1Cc1ccc(Br)cc1 | 2 | -8 | 14 | -1.4% | -4.8 | nt | 11%
19 | O=C(C1CCCCC1)N1C[C@H](O)[C@@H](n2cc(-c3ccc(F)cc3)nn2)C[C@@H]1c1ccccc1 | -5 | -7 | nt | -2.0% | -5.5 | -5 | nt
20 | CCn1c(COc2cccc(OC)c2)nnc1SCC(=O)Nc1cc(OC)ccc1OC | -6 | -8 | 16 | -3.2%[38.3 µM] | 1.0 | -11 | 2%
21 | CCn1c(=O)c(CCC(=O)NCC2CCCO2)c(C)c2c(C)nn(-c3ccc(C)cc3)c21 (stereo unspecified) | -10 | -31 | -11 | 0.6% | 0.2 | -15 | 5%
22 | CCN(CC)S(=O)(=O)c1ccc2c(c1)nc(SCC(=O)NC1CC1)n2-c1ccccc1OC | -4 | -5 | -21 | 0.0% | -2.3 | 0 | -18%
23 | CCOc1ccc(-c2nnc(NC3=NCCCCC3)o2)cc1 | 0 | 12 | 10 | -0.8% | 0.6 | -2 | 18%
24 | O=C(NCC1CCCO1)c1ccc(NC(=O)c2cccc([N+](=O)[O-])c2)cc1 (stereo unspecified) | -2 | -2 | 16 | 1.2% | 9.6 | -5 | 12%
25 | Cc1ccnc(NC(=O)C(C)N2C(=O)c3ccccc3C2=O)c1 (stereo unspecified) | -2 | -9 | 8 | 2.4% | -4.9 | 7 | 17%
26 | Cc1cc(NC(=O)COC(=O)C2CC(=O)N(c3cccc(C)c3C)C2)no1 (stereo unspecified) | 6 | -10 | -2 | 2.1% | -6.8 | 20 | 7%
27 | COc1ccccc1NC(=O)N1CCCC1C(=O)NCCc1ccccc1 (stereo unspecified) | -2 | ? | -3 | -0.4% | -0.9 | nt | -5%
28 | COCCn1c(=N)c(S(=O)(=O)c2ccc(F)cc2)cc2c(=O)n3cccc(C)c3nc21 | 5 | -9 | 14 | 3.3% | -1.7 | nt | 2%
